Screening results from PubChem.
UCH37 DUB inh = blocks the human deubiquitinase UCH37 | purified proteasome/UCH37, Ub-AMC cleavage fluorescence | Q9Y5K5 | actives 0.33% (n = 330,000) | inhibition, % (concentration not given with the values);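 active means mean of two replicates above 20%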;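 further: 0% = compound-free wells with enzyme and 100% = wells lacking proteasome; stock transfer was 100 nL into about 20 µL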
Target sequence (Q9Y5K5 whole entry, looked up): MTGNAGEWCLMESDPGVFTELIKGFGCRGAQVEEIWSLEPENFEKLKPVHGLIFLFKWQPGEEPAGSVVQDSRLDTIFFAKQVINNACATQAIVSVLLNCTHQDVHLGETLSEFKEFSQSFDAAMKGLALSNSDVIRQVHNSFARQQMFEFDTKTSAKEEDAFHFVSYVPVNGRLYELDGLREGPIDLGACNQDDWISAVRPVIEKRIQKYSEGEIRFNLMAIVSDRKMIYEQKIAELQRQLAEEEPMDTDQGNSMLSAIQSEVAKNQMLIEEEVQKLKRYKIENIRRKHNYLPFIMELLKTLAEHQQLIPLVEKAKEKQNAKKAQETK
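Reagent: Ub-AMC substrate; assay system: Proteasome-associated human UCH37 deubiquitinase; controls: no-proteasome and no-compound wells; read-out: % inhibition of Ub-AMC cleavage fluorescence; timing: 30 min preincubation with enzyme, 25 min cleavage at room temperature; signal: AMC fluorescence from Ub-AMC cleavage, excitation 355 nm, emission 460 nm; buffer or medium: Tris-HCl pH 7.4 plus ovalbumin, ATP-MgCl2, DTT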
E coli growth = blocks Escherichia coli growth; OD600, 23 h; stronger effect = lower value; OD600 absorbance (test concentration not listed); actives 0.21% (n = 330,000);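 active means OD600 absorbance below the run mean of sample wells minus 3.6 SD, in any replicate, cut at about 0.56 in these data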;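 further: stock transfer was 300 nL into about 60 µL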
The depositor's hits bear a star; i = inactive. The list is partial; count on the stated rates, not on these rows.

UCH37 DUB inh,E coli growth,mol
1.7,0.68,Cc1cccc(NCC(=O)NN=Cc2cccc(Br)c2)c1
0.7,0.69,Cn1c(=O)c2c(ncn2CCC(=O)NN=Cc2ccncc2)n(C)c1=O
-2.5,0.7,Oc1ccc(Br)cc1C=Nn1cnc2ccccc21
4.4,0.66,Cc1ccc(-c2nc(NN=Cc3ccncc3)c3ccccc3n2)cc1
-0.1,0.75,CC(=NO)c1ccc(N2C(=O)C3C4C=CC(C3C2=O)C2C3C(=O)N(c5ccc(C(C)=NO)cc5)C(=O)C3C42)cc1 (stereo not drawn)
1.2,0.68,O=C(CSCc1ccccc1Br)NN=Cc1ccc2c(c1)OCO2
5.7,0.7,COc1cc(C=NNC(=O)Cc2cccs2)c([N+](=O)[O-])cc1OC
-114,0.71,Cc1ccc(COc2ccc(C=NNC(=O)c3nnn(-c4nonc4N)c3COc3ccc(F)cc3)cc2)cc1
0.7,0.68,CC(CC(=O)Nc1cc(C)ccn1)=NNC(=O)c1cccc(F)c1
1.4,0.62,CN(C)CCCCCCCCCCC(=O)C=NO
-13,0.71,FC(F)(F)c1ccc(Cl)c(NN=Cc2ccc(N3CCOCC3)s2)c1
1.3,0.69,CC(=NNC(=O)c1ccc(Br)s1)c1cccnc1
0.6,0.65,CC(=NNC(=O)c1sccc1C)c1ccncc1
0.1,0.68,Cc1onc(-c2ccccc2)c1C(=O)NN=Cc1cc2c(cc1Cl)OCO2
4.7,0.67,O=[N+]([O-])c1ccc(OCCOc2ccccc2C=Nn2cnnc2)cc1
1.1,0.67,CC(NC(=O)c1ccccc1)C(=O)NN=Cc1cccc([N+](=O)[O-])c1 (stereo not drawn)
-1.3,0.67,O=C(Cc1ccc(Br)cc1)NN=Cc1ccc(-c2cccc(C(=O)O)c2)o1
-1.6,0.67,COc1ccc(C=NNC(=O)C2CC2)c(OC)c1OC
5.9,0.68,CCOc1cc(C=NNC(=O)CSc2nncn2C)ccc1OCc1cccc(C)c1
1.6,0.79,CC(=NNS(=O)(=O)c1ccc(C)cc1)c1cccc(NC(=O)c2cccc(Cl)c2)c1
17,0.67,O=C(NN=C/C(Cl)=C/c1ccc([N+](=O)[O-])cc1)C(=O)Nc1ccc(C(=O)O)cc1
-0.3,0.64,CCC(C)=NOc1nc(C)cc(C)n1
0.6,0.71,C(=Nn1cnnc1)c1ccc(OCc2ccccc2)cc1
3.3,0.67,Cc1ccc(C=NNc2nc(C)cc(C)n2)cc1
13,0.71,Cc1[nH]n(-c2ccc([N+](=O)[O-])cc2)c(=O)c1C=NN1CCOCC1
1.8,0.71,CC(=NNC(=S)NCc1ccccc1)c1cccc(Br)c1
5.0,0.67,COc1cc(C=NNC(=O)c2cc(C3CC3)[nH]n2)cc(OC)c1OC
-3.9,0.74,CCOC(=O)C=c1sc(=Cc2ccc(C(=O)OC)cc2)c(=O)n1CC(=O)Nc1ccccc1
8.3,0.75,O=C(CNC(=O)c1ccccc1)NN=C/C=C/c1ccccc1
1.9,0.57,Clc1cnc(NN=Cc2cccs2)c(Cl)c1
3.1,0.69,C(=NNc1nc2ccccc2[nH]1)c1cccc2nccnc12
4.2,0.63,O=C(NN=Cc1cccnc1)c1cc(C2CC2)nc2ccccc12
4.1,0.65,C(=NNc1ncnc2sc3c(c12)CCC3)c1cccs1
0.4,0.69,Cc1c(C(=O)O)oc2c1C(=NO)CCC2
3.2,0.7,O=C(Cc1cccs1)NN=Cc1ccc(OCc2ccccc2)cc1
4.9,0.68,O=C(NN=CC1CC2CCC1C2)c1c[nH]c2ccccc12 (stereo not drawn)
5.9,0.68,FC(F)(F)c1ccc(C=Nn2c(C3CCCCC3)n[nH]c2=S)cc1
0.2,0.66,COc1ccc(CNC(=S)NN=Cc2ccc(O)c(OC)c2)cc1
2.2,0.65,COc1ccc(C=NNC(=O)c2cccc(NC(=O)c3ccccc3Cl)c2)cc1
-3.8,0.72,CC(=Nc1nc2ccccc2n1C)c1cc(Cl)ccc1O

An excerpt of these results, as comma-separated lines:
structure,UCH37 DUB inh,E coli growth
C(=Nn1cnnc1)c1ccc(OCc2ccccc2)cc1,0.6,0.71
Cc1ccc(C=NNc2nc(C)cc(C)n2)cc1,3.3,0.67
Cc1[nH]n(-c2ccc([N+](=O)[O-])cc2)c(=O)c1C=NN1CCOCC1,13,0.71
CC(=NNC(=S)NCc1ccccc1)c1cccc(Br)c1,1.8,0.71
COc1cc(C=NNC(=O)c2cc(C3CC3)[nH]n2)cc(OC)c1OC,5.0,0.67
CCOC(=O)C=c1sc(=Cc2ccc(C(=O)OC)cc2)c(=O)n1CC(=O)Nc1ccccc1,-3.9,0.74
O=C(CNC(=O)c1ccccc1)NN=C/C=C/c1ccccc1,8.3,0.75
Clc1cnc(NN=Cc2cccs2)c(Cl)c1,1.9,0.57
C(=NNc1nc2ccccc2[nH]1)c1cccc2nccnc12,3.1,0.69
O=C(NN=Cc1cccnc1)c1cc(C2CC2)nc2ccccc12,4.2,0.63
C(=NNc1ncnc2sc3c(c12)CCC3)c1cccs1,4.1,0.65
Cc1c(C(=O)O)oc2c1C(=NO)CCC2,0.4,0.69
O=C(Cc1cccs1)NN=Cc1ccc(OCc2ccccc2)cc1,3.2,0.7
O=C(NN=CC1CC2CCC1C2)c1c[nH]c2ccccc12 (stereo not drawn),4.9,0.68
FC(F)(F)c1ccc(C=Nn2c(C3CCCCC3)n[nH]c2=S)cc1,5.9,0.68

Further records follow.
UCH37 DUB inh,E coli growth,mol
-0.2,0.66,O=C(NN=Cc1cccc(C(F)(F)F)c1)c1ccccc1O
2.1,0.69,C=CCN=c1scc(C)n1N=Cc1ccc(O)c(O)c1
7.4,0.65,S=c1[nH]nc(-c2ccco2)n1N=Cc1cccs1
-0.2,0.7,Cc1nn(Cc2ccc(Cl)cc2)c(Cl)c1C=NNC(=O)c1cccnc1
1.7,0.64,Cc1cc(C(=O)NN=Cc2cccc(Cl)c2Cl)no1
1.7,0.75,CC(=NN1CCN(C2c3ccccc3-c3ccccc32)CC1)c1ccncc1
4.6,0.74,CCn1cc(C=NN=C2CCC3C4CCc5cc(O)ccc5C4CC[C@]23C)c(C)n1 (stereo partly drawn)
3.1,0.69,Cc1sc2nc(C)n(N=Cc3ccccc3O)c(=O)c2c1C
5.3,0.67,Cc1ccc(C(=NNc2nc3ccccc3s2)C2=C(O)c3ccccc3C2=O)cc1
7.5,0.7,CC(=NNc1nccnc1Cl)c1ccc(O)cc1

Whole records, looked up by structure. Values in the order: UCH37 DUB inh, E coli growth
`CC(=NNc1nccnc1Cl)c1ccc(O)cc1` is listed with 7.5, 0.7
`Cc1sc2nc(C)n(N=Cc3ccccc3O)c(=O)c2c1C` is listed with 3.1, 0.69

More results follow.
UCH37 DUB inh,E coli growth,mol
i,0.71,COc1ccc(OC)c(C=NNC(=O)Cc2nc3ccccc3[nH]2)c1
-0.8,0.65,Cc1ccc(C(=O)Nc2nnc(CC(=O)NN=Cc3ccc(O)c(O)c3)s2)cc1
11,0.74,CCC1S/C(=N/N=Cc2cccs2)NC1=O (stereo not drawn)
-2.0,0.69,COc1ccc(C(=O)ON=Cc2c(C(F)(F)F)nn(C)c2SCc2ccccc2Cl)cc1
4.8,0.69,Cc1ccc(C=NNC(=O)C(C)NC(=O)c2ccccc2)cc1 (stereo not drawn)
-305,0.62,NC(=O)NN=Cc1ccc2cccc(OCc3ccccc3)c2n1
-0.3,0.68,Cc1nn(-c2cccc(Cl)c2)c(Cl)c1C=NNC(=O)c1cccs1
3.7,0.68,O=C(COc1cccc2cccnc12)NN=C1SCC(=O)N1Cc1ccccc1
-0.3,0.68,Cc1cc(C=NNC(=O)C(=O)N2CCCC2)c(C)n1-c1cccc(Br)c1
1.9,0.75,O=C(COc1cccc2ccccc12)NN=Cc1ccc(Sc2nc3ccccc3s2)o1
4.2,0.65,COc1cc(NC(=O)CC(C)=NNC(=O)c2ccccn2)c(OC)cc1Cl
-165,0.67,COc1ccc2[nH]c3c(N4CC(C)OC(C)C4)ncnc3c2c1 (stereo not drawn)
-0.2,0.7,CC(=NO)C(=O)NCc1ccccn1
12,0.7,COc1ccc(OCC(=O)NN=Cc2cccn2-c2cccc(C(=O)O)c2)cc1
-1.0,0.65,CC(=NNC(=O)CN1CCCCC1)c1ccccc1O
-1.0,0.68,CC1=CC(=NNC(=O)c2ccccc2)CC1
0.8,0.69,CCCCCC1=CCCC1=NNC(=O)c1ccc2c(c1)OCO2
1.9,0.63,CCOC(=O)c1c(N=CC2C(=O)CCCC2=O)sc(C)c1C
7.6,0.63,Fc1ccc(NN=Cc2cccnc2)c(F)c1
14,0.68,O=C(CN1CCN(Cc2ccccc2)CC1)NN=C/C=C\c1ccco1
1.7,0.69,Cc1nn(-c2ccccc2)c(Cl)c1C=NNC(=O)c1cccnc1
2.4,0.66,O=C(NCC1CCCO1)C(=O)NN=Cc1ccccc1C(=O)O (stereo not drawn)
12,0.65,O=C(NN=Cc1ccc[nH]1)c1ccncc1
4.5,0.64,O=C(NN=Cc1ccc(C(F)(F)F)cc1)c1ccc(O)cc1
4.4,0.69,CC(CC(=O)NC1CCCC1)=NNC(=O)c1ccc([N+](=O)[O-])c(Cl)c1
5.9,0.69,Cc1nc2ccc(Br)cn2c1C(=O)NN=Cc1ccccc1[N+](=O)[O-]
2.6,0.68,COc1ccc(C2C(C#N)=C(N=CN3CCOCC3)OC3=C2C(=O)CC(C)(C)C3)cc1OC (stereo not drawn)
4.0,0.66,O=C(NN=Cc1cccnc1)c1cccc(S(=O)(=O)N2CCCC2)c1
-0.5,0.67,O=C(NN=Cc1ccccn1)c1cccc(C(=O)NN=Cc2ccccn2)n1
-12,0.69,CCN(CC)c1ccc(C=NNC(=O)c2cccc(N3CCCC3=O)c2)cc1
-0.1,0.7,COc1ccc(CC(C)=NNC(=O)c2cc(C)oc2C)cc1
-41,0.7,COc1cc(C=NNC(=O)c2ccncc2)ccc1OCC(=O)Nc1ccc(C)c(C)c1
3.5,0.63,COc1ccc(C=NNC(=O)CN(c2ccc(OC)cc2)S(=O)(=O)c2ccccc2)cc1
2.3,0.65,CCN(CC)c1ccc(C=Nn2c(-c3ccccc3Br)n[nH]c2=S)cc1
3.1,0.74,C[C@]12CCC3c4ccc(O)cc4CCC3C1CCC2=NN (stereo partly drawn)
2.6,0.69,CN=c1scc(-c2cccs2)n1N=Cc1ccc(O)c(O)c1O
-52,0.72,COc1ccc(C(C)=NNC(=O)c2nnn(-c3nonc3N)c2-c2ccccc2)cc1
3.0,0.67,C=CCNC(=O)CC(=O)NN=Cc1cccc(Br)c1
3.8,0.71,O=C(CC(=O)NN=Cc1ccc(F)cc1)NN=Cc1ccc(F)cc1
0.5,0.7,CCOc1cc(C=NNC(=O)COc2ccc(C)cc2)ccc1OC(=O)c1cccs1
3.5,0.7,O=c1[nH]c(NN=Cc2ccccc2Br)nnc1-c1ccccc1
1.6,0.73,CCCCOc1cccc(C=NNC(=O)c2csc(C)c2C)c1
-16,0.71,CCOc1ccc(C=NNC(=O)c2ccccc2NC(=O)c2ccc(OC)cc2)cc1
4.0,0.68,Cn1c(=O)[nH]c(=O)c2c1nc(Br)n2CC=NNC(=O)c1ccccc1
9.5,0.66,CC(=NNC(=O)c1sc(NS(=O)(=O)c2ccccc2)nc1C)c1sc(N)nc1C
2.7,0.67,COc1ccc(C=NNc2nnc(Cc3ccc(OC)c(OC)c3)c(=O)[nH]2)cc1
4.6,0.66,S=c1[nH]nc(-c2ccco2)n1N=C/C(Cl)=C/c1ccccc1
1.8,0.65,Cc1ccsc1C=NNC(=O)CNC(=O)c1ccco1
-2.0,0.71,O=C(NN=Cc1ccccc1OCc1ccccc1)c1cccs1
-29,0.72,Cn1c(N2CCOCC2)c(C=NOC(=O)c2cccnc2Cl)c2ccccc21

(listing goes on)
UCH37 DUB inh,E coli growth,mol
3.2,0.72,Cc1nn(Cc2ccccc2)c(Cl)c1C=NNC(=O)CNc1cccc(C(F)(F)F)c1
-121,0.76,CC(=NOC(=O)c1cccc(C(F)(F)F)c1)c1sc(-c2ccccc2)nc1C
4.0,0.61,CCOc1ccccc1C=NNc1nc2c(N)ncnc2n1[C@H]1O[C@@H](CO)[C@H](O)[C@@H]1O
0.3,0.68,COc1ccc(CC(=O)NN=C(C)c2cccs2)cc1
2.5,0.67,COc1cc(C=Nn2c(C)n[nH]c2=S)ccc1OCc1ccccc1
7.3,0.77,Cc1cc(C(=O)NN=Cc2ccc(COc3ccc([N+](=O)[O-])cc3)o2)ccc1[N+](=O)[O-]
1.9,0.72,C=CCNS(=O)(=O)c1sccc1C=NO
7.2,0.68,CCNC(=S)NN=C(C)c1ccco1
-0.9,0.72,CCNC(=S)NN=Cc1sc(N2CCCCC2)nc1-c1cccs1
5.0,0.7,O=C(CN1CCSCC1)NN=Cc1cccc(Cl)c1
-67,0.65,Cc1cc(C(=O)NN=Cc2sc(N3CCOCC3)nc2-c2ccccc2)c(C)o1
1.3,0.65,S=C(NN=Cc1ccco1)NC1CC2CCC1C2 (stereo not drawn)
4.6,0.72,Cc1ccc(C=NNC(=O)Cn2nnc(N)n2)cc1
1.5,0.69,Clc1ccc(C=NN2CCN(Cc3ccccc3Cl)CC2)cc1
4.8,0.69,COCCNC(=S)NN=C(C)c1ccc(OC)cc1
12,0.67,Cn1cccc1C=NNC(=O)c1cncc(Br)c1
1.5,0.72,CCn1cc(C=NNS(=O)(=O)c2ccc(OC)cc2)c(C)n1
1.9,0.65,CN1CCN(N=Cc2c3ccccc3c(Cl)c3ccccc23)CC1
6.4,0.64,Cc1ccc(C(=O)NN=Cc2ccc[nH]2)cc1[N+](=O)[O-]
11,0.68,CCN1C(=O)/C(=C\N(C)C)SC1=NS(=O)(=O)c1ccccc1
4.8,0.64,CC(C)c1c(C(=O)NN=Cc2ccc(C(F)(F)F)cc2)nnn1-c1nonc1N
-1.7,0.67,O=C(NN=Cc1ccc[nH]1)c1cccc(Br)c1
4.3,0.69,C=CCNC(=S)NN=C(C)c1cc(OC)c(OC)c(OC)c1
